Bioassay records (PubChem BioAssay)
StopGo RLuc: lowers the Renilla signal of an FMDV 2A StopGo reporter; Potency, µM (top dose mostly 57.5 µM), for the others: at the top dose signal change, negative = less light; 0.32% of 120,000 active; HEK cells with a luciferase reporter of 2A StopGo recoding; active means well fitted falling curve with a large enough effect; inconclusive means small, poorly fitted or top-dose-only effect; inactive means no such curve, though single readings can be large or run the other way; note: nearly all actives have a fitted effect of over 55% in size; overnight with compound
2A firefly: FMDV 2A StopGo reporter, firefly signal | HEK cells with a luciferase reporter of 2A StopGo recoding | 0.23% of 120,000 active | AID 1745856 | Potency, µM (series often up to 57.5 µM), for the others: at the highest dose signal change, negative = less light; active = well fitted falling curve with a large enough effect; inconclusive = small, poorly fitted or top-dose-only effect; inactive = no such curve, though single readings can be large or run the other way; note: nearly all actives have a fitted effect of over 60% in size; overnight with compound
* marks the source's active call; other numbers are inactive results; ? = inconclusive; & = joins results of further samples; [ ] = another dose, or the depositor's remark. % is set by controls: 0 for no effect and ±100 for the full control effect; potency is the fitted concentration of half-maximal effect.

Start of the listing, in advance:
SMILES	StopGo RLuc	2A firefly
CCCNC(=O)Cn1nc(-c2ccc(C)cc2)c2cnc3ccc(CC)cc3c21	-15.1%	26.8%
CN(Cc1ccsc1)C(=O)CC1C=CCC1 (stereo not given)	28.1%	69.0%[activator]
COc1ccccc1C(=O)COC(=O)Cc1coc2cc(C)ccc12	20.1%	-4.4%
Cc1ccc(-n2nnnc2SCC(=O)N(Cc2ccco2)C2=CCCCC2)cc1	4.4%	-19.2%
CCCS(=O)(=O)NC1CCN(c2nc3ccccc3o2)CC1	-11.1%	-6.8%
O=C(COc1ccc(F)cc1Cl)N1CCC(c2ccccc2)=N1	26.8%	12.9%
CCN1CCN(c2ccc(N3CCN(S(=O)(=O)c4cccc(C)c4)CC3)nn2)CC1	-3.1%	-2.1%
Cc1ccccc1NC(=O)Cn1c(=O)n(CCC(=O)NCc2ccc3c(c2)OCO3)c(=O)c2sccc21	-12.3%	15.3%
CCCCN(CC)C(=O)c1cccc2c(C)c(C)[nH]c12	219.8%[activator]	-0.9%
CC(NC(=O)Cc1nn(C)c(=O)c2ccccc12)c1ccc(F)cc1F (stereo not given)	?	?
O=S1(=O)CCN(C2CCCCC2)c2c(F)nc(F)c(Cl)c21	-28.8%	-20.9%
CCOc1cc(C2NC(=O)N(C)C(C)=C2C(=O)OC)cc(Br)c1O (stereo not given)	8.5%	3.1%
CCOC(=O)c1cc(-c2ccc(S(=O)(=O)Nc3ccc(F)c(Cl)c3)s2)on1	63.6%[activator]	21.4%
Cc1ccccc1Nc1c(-c2cc(Br)ccc2F)nc2ccccn12	-9.0%	0.0%
COc1ccc(S(=O)(=O)NC2(C(F)(F)F)NC(=O)N(CCc3ccc(OC)c(OC)c3)C2=O)cc1 (stereo not given)	-5.2%	-14.0%
COC(=O)c1cc(S(=O)(=O)N(C)CC(=O)N2CCN(c3ccc(Cl)cc3)CC2)cn1C	?	?
COc1ccc(NC(=O)c2cc(S(=O)(=O)N3CCc4ccccc43)cn2C)cc1Cl	1.8%	-11.2%
CCCCCCCCCCS(=O)(=O)N/N=C/c1ccccc1[N+](=O)[O-]	-11.1%	0.7%

This part in full, repeating the preview:
SMILES	StopGo RLuc	2A firefly
CCCNC(=O)Cn1nc(-c2ccc(C)cc2)c2cnc3ccc(CC)cc3c21	-15.1%	26.8%
CN(Cc1ccsc1)C(=O)CC1C=CCC1 (stereo not given)	28.1%	69.0%[activator]
COc1ccccc1C(=O)COC(=O)Cc1coc2cc(C)ccc12	20.1%	-4.4%
Cc1ccc(-n2nnnc2SCC(=O)N(Cc2ccco2)C2=CCCCC2)cc1	4.4%	-19.2%
CCCS(=O)(=O)NC1CCN(c2nc3ccccc3o2)CC1	-11.1%	-6.8%
O=C(COc1ccc(F)cc1Cl)N1CCC(c2ccccc2)=N1	26.8%	12.9%
CCN1CCN(c2ccc(N3CCN(S(=O)(=O)c4cccc(C)c4)CC3)nn2)CC1	-3.1%	-2.1%
Cc1ccccc1NC(=O)Cn1c(=O)n(CCC(=O)NCc2ccc3c(c2)OCO3)c(=O)c2sccc21	-12.3%	15.3%
CCCCN(CC)C(=O)c1cccc2c(C)c(C)[nH]c12	219.8%[activator]	-0.9%
CC(NC(=O)Cc1nn(C)c(=O)c2ccccc12)c1ccc(F)cc1F (stereo not given)	?	?
O=S1(=O)CCN(C2CCCCC2)c2c(F)nc(F)c(Cl)c21	-28.8%	-20.9%
CCOc1cc(C2NC(=O)N(C)C(C)=C2C(=O)OC)cc(Br)c1O (stereo not given)	8.5%	3.1%
CCOC(=O)c1cc(-c2ccc(S(=O)(=O)Nc3ccc(F)c(Cl)c3)s2)on1	63.6%[activator]	21.4%
Cc1ccccc1Nc1c(-c2cc(Br)ccc2F)nc2ccccn12	-9.0%	0.0%
COc1ccc(S(=O)(=O)NC2(C(F)(F)F)NC(=O)N(CCc3ccc(OC)c(OC)c3)C2=O)cc1 (stereo not given)	-5.2%	-14.0%
COC(=O)c1cc(S(=O)(=O)N(C)CC(=O)N2CCN(c3ccc(Cl)cc3)CC2)cn1C	?	?
COc1ccc(NC(=O)c2cc(S(=O)(=O)N3CCc4ccccc43)cn2C)cc1Cl	1.8%	-11.2%
CCCCCCCCCCS(=O)(=O)N/N=C/c1ccccc1[N+](=O)[O-]	-11.1%	0.7%
Cc1c(Cc2ccccc2)c(=O)oc2c(C)c(OCC(=O)NCCCO)ccc12	-1.0%	-5.9%
CC(C)CN(C(=O)CN(C)C(=O)Cc1cccc2ccccc12)c1c(N)n(CC(C)C)c(=O)[nH]c1=O	-9.9%	0.1%
O=C(CSc1nnc(-c2ccc(Cl)cc2)c(-c2ccc(Cl)cc2)n1)NC1CCCC1	12.5%	2.0%
Cc1c(NC(=O)c2cc(-c3ccc(O)cc3)on2)c(=O)n(-c2ccccc2)n1C	26.7%&-8.5%	37.3%&0.1%
COc1ccc(OC)c(S(=O)(=O)Nc2cccc(-c3ccc(N4CCCCCC4)nn3)c2)c1	-1.1%	3.0%
O=C(NCNC(=O)Nc1ccccc1)Nc1ccccc1	0.6%	9.5%
Cc1c(-c2cccc(NC(=O)Nc3ccccc3)c2)nc2ncccn12	127.0%[activator]	0.0%

(list continues)
SMILES	StopGo RLuc	2A firefly
Cc1scc(C(=O)NCCC23CC4CC(CC(C4)C2)C3)c1-c1ccccc1	21.4%	-5.3%
CCOc1cc(Cl)c(C=O)cc1OC	25.3%	47.3%[activator]
Nc1nc2c([N+](=O)[O-])cccc2[n+]([O-])n1	-12.0%	0.8%
CC/C(C)=N/NC(=O)C(O)(c1ccccc1)c1ccccc1	8.0%	0.6%
CC(C)NC(=S)N/N=C1\CC2CC=CC12 (stereo not given)	56.5%[activator]	20.9%
CCCC#CC(C)(O)CNC(Cc1ccccc1)C(=O)O (stereo not given)	13.2%	0.0%
Cc1cccc(/C=C(\C#N)c2nc3ccccc3c(=O)[nH]2)c1	-12.0%	-18.5%
Cc1ccc(N(Cc2ccco2)C(=O)Cn2cnc3ccc(F)cc3c2=O)cc1	-6.2%	-2.6%
Cc1nc2ccc(Cl)cc2cc1C(=O)NCc1cccnc1-n1cccn1	-10.7%	-10.6%
Cc1oc(C)c2c(=O)cc(-c3ccc4c(c3)OCO4)cc(OC(=O)c3ccccc3Br)c12	-5.3%	15.8%
CC(C)Cn1cc(NC(=O)NCc2cccc(Cl)c2)c2ccccc2c1=O	-4.0%	-7.2%
c1ccc(OCc2nn3c(CN4CCOCC4)nnc3s2)cc1	-7.0%	-0.6%
CN1C(=O)COc2ccc(NC(=O)C(=O)NC3CCCCCC3)cc21	-3.0%	0.0%
Cc1oc(-c2ccccc2)nc1C(=O)OCC(=O)NC(C)c1ccccc1 (stereo not given)	-5.2%	2.6%
CCOC(=O)C1CCCN(C(=O)c2ccc3c(c2)N(Cc2ccccc2F)C(=O)c2ccccc2S3=O)C1 (stereo not given)	19.5%	-1.5%
COc1ccccc1Nc1ncnc2scc(-c3ccc(F)cc3)c12	-13.0%	-6.7%
O=C(CCS(=O)(=O)c1cc(Br)cc2c1N(C(=O)C1CC1)CC2)NCc1ccc(Cl)cc1	94.4%[activator]	0.1%
COc1ccc(C(=O)C(C)OC(=O)C23CC4CC(CC(Cl)(C4)C2)C3)c(OC)c1 (stereo not given)	65.0%[activator]	-1.6%
COc1ccccc1NC(=O)c1oc2ccccc2c1NC(=O)Cc1ccccc1	-8.2%	-15.6%
COc1cc2nc(NC(=O)c3ccc(F)cc3)[nH]c(=O)c2cc1OC	-9.2%	16.5%
CSc1ncc(C(=O)Nc2ccccc2C(=O)c2ccccc2)c(C)n1	3.9%	-14.7%
O=C(O)C(Br)Cc1ccc(Cl)cc1Cl (stereo not given)	18.9%	53.2%[activator]
Cc1nn(-c2ncccn2)c2c1C(c1ccc(OCC(N)=O)cc1)CC(=O)N2 (stereo not given)	-1.4%	11.4%
COc1ccc(CN(Cc2ccco2)c2cnc(S(C)(=O)=O)nc2C(=O)Nc2ccc(C)cc2C)cc1	-11.0%	-20.1%
O=S1OCCSc2sc(=S)sc2SCCO1	0.3%	3.1%

Later entries
SMILES	StopGo RLuc	2A firefly
CC(=O)c1ccc(NC(=O)C2CCC(CNS(=O)(=O)c3ccc(Br)s3)CC2)cc1 (stereo not given)	-17.7%	-4.9%
Cc1cc(=O)oc2cc(OCC(=O)NCc3cccnc3)c(Cl)cc12	-10.8%	-9.9%
COc1ccc(S(=O)(=O)c2c(O)c3ccc(C(=O)NCc4ccccc4)cc3[nH]c2=O)cc1	14.8%	-7.0%
O=C(c1cccs1)N(C1CCCCC1)C1CCCCC1	7.3%[1.06 µM]	?
Cc1cc(C)c(C(=O)C(C)n2cnc3c2c(=O)n(C)c(=O)n3C)cc1C (stereo not given)	?	?
Cc1ccc(NC(=O)NCc2nc(-c3ccccc3)oc2C)cc1C	-3.5%	0.0%
CCOc1cc(C(=O)Nc2ccc3c(c2)n(C)c(=O)c(=O)n3C)cc(OCC)c1OCC	?	?
Cc1ccc(C)c(N2CCN(CCCNC(=O)c3nnc(Cc4ccc(F)cc4Cl)o3)CC2)c1	?	-40.7%
CCCCn1c(=N)c(S(=O)(=O)c2ccc(C)cc2)cc2c(=O)n3cc(C)ccc3nc21	5.2%	-1.8%
COc1ccccc1N1C(=O)C(Cc2ccccc2)N=C1N1CCN(C)CC1 (stereo not given)	-8.1%	-7.4%
NC(=O)c1cccc(NS(=O)(=O)c2ccccc2[N+](=O)[O-])c1	169.9%[activator]	2.4%
COc1ccc(C)cc1NC(=O)C1CCN(S(=O)(=O)c2ccc3c(c2)CCCN3C(C)=O)CC1	-13.4%	-7.5%
Cn1c(Oc2cccc(Cl)c2)nc2c1c(=O)n(Cc1ccc(F)cc1)c(=O)n2C	-2.0%	-5.9%
C/C(=N/NC(=S)NC1CCCCC1)c1ccc(C)cc1	-18.0%	13.6%
Cc1ccc(CN(C(=O)c2ccc(C(N)=O)s2)C2CC2)o1	-8.3%	6.9%
COc1ccccc1Oc1c(C)oc2cc(OC(=O)C(C)(C)C)ccc2c1=O	10.5%	5.5%
Cc1ccc(-n2nnnc2C2(Nc3ccccc3)CCCCC2)cc1	258.9%[activator]	15.8%
Cc1ccc(N2CN(CCCN3CCOCC3)Cn3c2nc(C)c(C)c3=O)cc1	5.3%	0.0%
COCCn1cnnc1SCc1csc(-c2cc(Br)ccc2OC)n1	37.4%[activator]	0.2%
CC(=O)NS(=O)(=O)c1ccc(NC(=O)C2c3ccccc3Oc3ccccc32)cc1	-7.1%	-5.6%
COc1ccc2c(c1)c1c(c(=O)n(Cc3ccccc3)c(=O)n1Cc1cccc(Cl)c1)n2C	2.8%	-7.8%
Cc1c(Cl)cccc1NC(=O)Cn1nnc(-c2nc(-c3ccccc3)no2)c1N	5.9%	1.2%
Cc1cccc(NC(=O)CSc2nc3ccccc3nc2N2CCC(C)CC2)c1	?	?
COc1ccc(S(=O)(=O)NCc2ccc3c(c2)CCN3C(=O)c2ccc(C)cc2)cc1Cl	50.0%[activator]	-11.1%
CNC(=O)c1ccc(NC(=O)CSc2ncc(-c3ccc(F)cc3)o2)cc1	1.0%	17.2%

Following part
SMILES	StopGo RLuc	2A firefly
CCN1CCC(N(Cc2cccs2)C(=O)Nc2cc(Cl)ccc2C(=O)OC)CC1	23.4%	13.2%
COc1cc(C(=O)Nc2ccccc2NS(C)(=O)=O)cc(OC)c1OC	29.4%	23.6%
C#Cc1cccc(NC(=O)c2n[nH]c(=O)c3ccccc23)c1	-11.0%	0.0%
O=C(O)C1C2C=CC(O2)C1C(=O)Nc1cc(OCC(F)(F)F)cc(OCC(F)(F)C(F)F)c1 (stereo not given)	6.1%	4.4%
CC(C)(CNC(=O)CCCNC(=O)C1CC1)c1ccc(Br)cc1	15.7%	17.7%
CCOC(=O)c1cc(C)n(CC2CCC(C(=O)Nc3ccc(OC)cc3)CC2)c1C (stereo not given)	?	?
CCC(CC)C(=O)Nc1cccc(-c2nc3ncccn3c2C)c1	-2.4%	14.1%
CCc1ccc2c(c1)c(=O)c(S(=O)(=O)c1ccccc1)cn2CC(=O)Nc1cc(C)ccc1C	-8.2%	-27.1%
COCCCn1c(SC(C)C(=O)c2ccc(OC)cc2)nnc1-c1ccc(Cl)cc1 (stereo not given)	44.1%[activator]	1.4%
C#CCN(C)S(=O)(=O)c1ccc(N2CCCC2)cc1Br	?	?
CCC(CC)c1nn2c(=O)cc(COc3ccc(NC(=O)c4ccc(Cl)cc4)cc3)nc2s1	-2.4%	-6.0%
O=C1c2ccccc2S(=O)(=O)N1Cc1nc(-c2ccc(F)cc2)cs1	-21.8%	13.6%
CC(C)(N)c1nnnn1-c1ccc2c(c1)OCO2	0.0%	61.1%[activator]
Cc1ccc(C(=O)Nc2cccc3cccnc23)cc1	14.8%	156.5%[activator]
C#CC(CC)(CC)NC(=O)Cc1cc(OC)c(OC)c(OC)c1	4.8%	-5.5%
O=S(=O)(Nc1cccc(F)c1)c1ccc2[nH]c3c(c2c1)CCCCC3	-9.0%	0.0%
O=Cc1n[nH]nc1-c1ccccc1	6.8%	22.3%
O=C(Nc1ncn(Cc2c(F)cccc2Cl)n1)c1ccn(COc2ccc(Cl)cc2)n1	-9.1%	-16.3%
CCn1c(CNC(C)c2ccc(Cl)c(Cl)c2)nc2cc(S(=O)(=O)N3CCOCC3)ccc21 (stereo not given)	8.6%	13.5%

Some of the compounds tested. The share of hits here may be higher or lower than overall.
